# From PubChem BioAssay
# BJeLR viability: BJeLR cell viability loss. BJeLR (HRASV12) viability, CellTiter-Glo ATP luminescence, 48 h; reference of the scale not given here. inhibition, % (concentration not given with the values). 300,000 tested, 0.17% active. AID 1554;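 active = replicate mean above 50%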;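 note: 50 nL library stock added to about 25 µL; numbers are from one replicate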
# ugtP null kill: kills S. aureus RN4220 lacking UgtP; growth inhibition, % (test concentration not listed); S. aureus RN4220 ugtP deletion, OD600 growth, 16 h; some inactives read as strong as hits; AID 1259309; 330,000 tested, 0.54% active;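 active = z-score under -3 and OD600 up to 0.15 on both plates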;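 note: plate controls were untreated wells for no effect and antibiotic for full effect; wells of about 80 µL received 100 nL stock; the first replicate is given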
# Mtb hypoxia rep: reduces hypoxia-regulated biosensor signal in M. tuberculosis | 300,000 tested, 0.1% active | AID 1159583 | fluorescence inhibition, % (test concentration not listed) | M. tuberculosis hypoxia-regulated fluorescent reporter, fluorescence;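 active = 35 to 45% if threefold the growth effect, above 45% if 1.5-fold the growth effect; inactive = the rest, general growth blockers included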;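 note: wells of about 50 µL received 100 nL stock; 0% = vehicle wells and 100% = reference inhibitor wells; whole bacteria with a GFP reporter of the hypoxia response; strong numbers were not always called active; many hits fall short of the cut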
# PrP 5UTR inh: inhibition of PrP 5' UTR reporter expression; cell-based PrP 5' UTR mRNA reporter, plate reader; 340,000 tested, 0.35% active; inhibition, % (test concentration not listed);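 active = every replicate at 50% or more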;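 note: 0 = median of the neutral control wells; tested in H4 reporter cells; numbers are from one replicate; inactives centre near -14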
# Autofluor counter: counter-screen for toxin protease inhibitors: compound fluorescence; compound autofluorescence counterscreen, microsphere flow cytometry; active compounds read high; fluorescence intensity (test concentration not listed); 360,000 tested, 3.1% active;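 active = at least 3 SD above the mean of all compounds, about 16000 in these data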;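 note: 100 nL of 1 mM stock went into each well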
# Sa RN4220 lethal: kills Staphylococcus aureus RN4220 | S. aureus RN4220 growth, OD600, 16 h | 330,000 tested, 0.33% active | inhibition, % (no concentration beside the values);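 active = z-score of -3 or lower and OD600 up to 0.18 on both plates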;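 note: plate controls were untreated cells for no effect and reference antibiotic for full effect; stock transfer was 100 nL into about 80 µL; one replicate is shown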
# Mtb hypoxia rep growth: second read-out of Mtb hypoxia rep, no call of its own (marks repeat the call); growth inhibition, %; measured here: M. tuberculosis growth (absorbance);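 0% = vehicle and 100% = reference antibiotic; read after six days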
# Active calls of the source: *; nt = no result given.
molecule	BJeLR viability	ugtP null kill	Mtb hypoxia rep	Mtb hypoxia rep growth	PrP 5UTR inh	Autofluor counter	Sa RN4220 lethal
CCN(CC)c1ccc(/C=N/NC(=O)OC)c(O)c1	-0.4	nt	nt	nt	-19.0	5049	nt
c1ccc2c3c(ccc2c1)OCC1CONC31 (configuration not stated)	-0.8	-2.5	10.1	-2.3	nt	nt	9.8
O=C(Nc1ccccc1N1CCCC1)C1CCN(S(=O)(=O)c2ccccc2)CC1	-6.5	4.8	3.6	2.9	-11.2	6505	3.0
CCOC(=O)C1CCN(C(=O)c2ccc(OCC)c(OCC)c2)CC1	-0.5	1.9	nt	nt	-7.9	2621	1.1
N/C(CC(=O)Nc1ccc(F)cc1F)=N\OC(=O)c1cccs1	-8.1	10.9	4.3	5.9	-8.0	6213	4.2
O=C(c1ccco1)N1CCN(C(=O)c2snc3ccc(Cl)cc23)CC1	-15.4	-4.6	0.1	2.8	-6.3	3050	-18.4
CCC(C)NCCCOc1cc(Cl)ccc1Cl (configuration not stated)	-5.9	2.2	6.5	7.6	-15.1	3645	-0.2
CCN1C(=O)c2ccccc2S(=O)(=O)c2ccc(C(=O)NCc3cccnc3)cc21	1.7	11.2	4.8	7.0	-11.2	6090	2.8
COc1cccc(C=NNC(=O)CCc2c(C)n[nH]c2C)c1	nt	-3.3	6.2	4.5	nt	nt	3.5
O=C(CCCn1c(SCc2cc(=O)n3ccccc3n2)nc2ccccc2c1=O)NCC1CCCO1 (configuration not stated)	10.2	3.4	-4.9	6.6	-11.7	4470	4.9
COc1ccc(C(=O)C2CCCN(C3Cc4ccccc4C3)C2)c(OC)c1 (configuration not stated)	3.5	9.7	-2.0	-2.0	-12.4	2823	2.2
NC(=O)c1nsc(C(=O)N(Cc2cccnc2)C(C(=O)NCc2ccc(F)cc2)c2ccc(F)cc2)c1N (configuration not stated)	2.4	-2.7	4.6	2.1	-10.3	3103	0.1
O=C(c1ccccc1)N1CCN(C(=O)c2nn3c(C(F)(F)F)cc(-c4ccco4)nc3c2Br)CC1	-0.8	nt	nt	nt	-3.2	5473	nt
Cc1cc(C(=O)N/N=C/c2cccnc2)n[nH]1	5.0	nt	nt	nt	-7.1	3756	nt
CN(C)CCCNc1ccc(S(N)(=O)=O)cc1[N+](=O)[O-]	-3.1	-0.8	7.5	-6.8	-19.4	2469	0.5
Cc1oc2cc(OCC(=O)O)ccc2c(=O)c1Oc1ccccc1	10.3	8.0	16.3	2.9	-16.9	10000	3.7
Cc1occc1C(=O)N1CCN(S(=O)(=O)c2ccccc2)CC1	-9.9	-3.4	0.9	-1.9	-5.9	4257	-0.5
O=C(CNC(=O)c1ccc(=O)[nH]c1)Nc1ccc(F)c(F)c1	-1.2	7.0	-4.0	2.1	-7.4	4016	-1.2
CCN(CC)CCSc1nc(O)c(C(C)C)c(=O)[nH]1	-1.2	6.4	17.8	10.1	-47.9	3302	2.1
COC(=O)c1cccc(N(CC(=O)NC2CCCC2)C(=O)CCC(=O)Nc2cc(C)on2)c1	-6.9	3.5	0.2	7.1	-3.3	5542	4.9
COc1cc2c3c(c1OC)-c1cc(O)ccc1CC3NCC2 (configuration not stated)	-1.3	1.8	nt	nt	-10.1	4887	0.5
O=C(Cn1cc2c(n1)CCCCC2)NCCCN1CCOCC1	10.0	1.6	nt	nt	-21.5	5435	2.7
CCOc1ccccc1CN1CCN(CC2CC2)CC1CCO (configuration not stated)	1.7	5.2	0.1	1.0	-13.7	3586	3.1
Cc1ccc(NC(=O)C2CCN(S(=O)(=O)c3c(C)nn(C)c3C)CC2)c(Cl)c1	5.0	-3.8	-11.6	-8.3	-19.8	5167	-2.3
COC(=O)c1ccc(COC(=O)c2nn(C)c(=O)c3ccccc23)cc1	5.5	5.6	21.2	12.5	-4.3	5335	10.7
CC(C)n1c(C(F)(F)F)nc2cc(C(=O)N3CCOCC3)ccc21	-12.3	3.5	14.9	5.6	-10.2	4236	8.3
O=C(Nc1cc(C(F)(F)F)ccc1Cl)c1ccncc1	10.6	1.8	4.1	7.1	1.1	4352	9.4
CCN(CC)c1ccc(C=NNC(=O)c2c(-c3ccccc3)noc2C)cc1	nt	4.3	4.5	-2.3	nt	nt	3.0
Cc1cc2c(=O)n(NC(N)=O)c(C)nc2s1	nt	-0.4	nt	nt	-18.5	2813	-1.2
Cc1[nH][nH]c(=O)c1C(c1cc(Br)ccc1O)c1c(C)[nH][nH]c1=O	1.5	0.8	11.0	10.1	-14.4	3747	2.1
O=C(C(c1ccccc1)c1ccccc1)N1CCN(Cc2ccncc2)CC1	8.8	-1.1	-6.8	6.3	-10.9	2374	2.7
Cc1ccc(NC(=O)CSc2nc3[nH]c(=O)cc(O)c3s2)c(Br)c1	nt	-1.9	11.0	9.0	-20.1	3685	21.4
CCn1cc(Cl)c(C(=O)Nc2nccs2)n1	-6.8	-2.5	-1.9	-1.5	-32.7	5185	2.9
CC(O)C(C(=O)N1CCNCC1)n1cc(C(N)CCCCN)nn1 (configuration not stated)	nt	-1.8	-5.4	4.9	nt	nt	1.4
Cc1nnc(SCC(=O)N2CCN(S(=O)(=O)c3ccccc3)CC2)n1Cc1ccccc1	10.4	-5.3	0.1	3.2	-6.7	3956	1.7
CN(C)c1ccc(/C=C(/C#N)C(=O)Nc2nc3c(s2)CCN(Cc2ccccc2)C3)cc1	nt	-11.0	-1.0	2.4	-3.5	8687	-0.5
CC(C)(C)OC(=O)N1CCN(c2ccc(NC(=O)c3ccco3)cc2)CC1	-8.7	5.8	-13.7	6.1	-29.6	5435	1.1
CCN(CC)S(=O)(=O)c1ccc(C(=O)OCCN2C(=O)c3cccc4c(N5CCOCC5)ccc(c34)C2=O)cc1	10.1	0.3	10.7	5.6	-3.1	7204	1.7
COc1ccc(NC(=O)C23CCC(C)(C(=O)O2)C3(C)C)cc1 (configuration not stated)	8.2	-1.9	-6.3	-1.5	-15.1	6104	-2.1
CNc1ccc(C(=O)c2ccccc2C(=O)O)cc1[N+](=O)[O-]	-0.4	-0.1	13.8	9.8	-2.8	3355	2.8
Cc1ccccc1C(=O)Nc1ccc2c(C#N)c3nc4ccccc4nc3n2c1	nt	-15.6	-1.3	-5.6	2.1	3028	1.9
CCCCOC(=O)CSC1=C(C#N)C(c2ccccc2OC)C(C#N)C(=O)N1 (configuration not stated)	6.1	-15.8	nt	nt	-1.9	5272	-6.8
O=C(Nc1cnn(C23CC4CC(CC(C4)C2)C3)c1)c1cnn2c(C(F)(F)F)cc(-c3ccco3)nc12	-14.7	-38.6	7.4	11.7	-16.4	7798	7.4
Nc1nc(N)nc(C2C=CCCC2)n1 (configuration not stated)	nt	2.2	-0.4	8.0	1.7	2946	2.0
O=C(COC(=O)Cc1ccc(Br)cc1)Nc1ccc(N2CCOCC2)cc1	nt	-0.5	2.9	-2.7	-12.2	8588	-0.7
Cc1ccc(C(=O)NCCCN2CCOCC2)c(Cl)c1	-8.4	3.1	1.9	6.5	-14.7	4231	0.8
COc1ccc(N(CC(=O)N2CCCCCC2)S(=O)(=O)c2ccccc2[N+](=O)[O-])c(OC)c1	-8.1	-11.5	12.2	-4.8	-16.3	6148	8.4
FC(F)(F)c1cccc(-c2nn[nH]n2)c1	-1.9	9.9	0.2	-0.3	-10.3	5190	3.1
O=C(Nc1ccccc1)C1=CC(c2ccc(Br)cc2)CC(OCCCCO)O1 (configuration not stated)	nt	8.6	7.1	0.3	nt	nt	4.4
CCCC12CN3CC(CCC)(CN(C1)C3c1ccccn1)C2=O (configuration not stated)	0.6	-0.1	-1.6	15.1	-3.2	9364	1.1

# The list continues.
molecule	BJeLR viability	ugtP null kill	Mtb hypoxia rep	Mtb hypoxia rep growth	PrP 5UTR inh	Autofluor counter	Sa RN4220 lethal
CCN(C(=O)COC(=O)/C=C/c1nc2ccccc2s1)c1c(N)n(Cc2ccccc2)c(=O)[nH]c1=O	nt	13.5	0.6	1.4	-30.0	2991	8.9
CS(=O)(=O)N(CC(=O)N1CCN(c2ccc(F)cc2)CC1)c1ccc(F)c(Cl)c1	-2.2	-7.4	-7.1	2.4	-6.5	24225*	-3.2
Cn1c(SCC(=O)N2CCN(c3ccccc3)CC2)nnc1-c1ccccc1	-0.1	-1.4	-2.3	6.7	-0.9	5100	-5.0
COc1ccccc1CC(=O)Nc1cc(S(=O)(=O)N2CCOCC2)ccc1N1CCOCC1	nt	3.7	-6.7	1.1	-28.3	3766	8.4
O=C(Nc1ccccc1)Nc1c(F)cccc1F	3.2	1.6	6.6	-0.8	0.9	2075	5.2
COc1ccc(Nc2nnc(SCC(=O)NC3CC3)s2)cc1	nt	1.1	6.5	6.2	-9.2	8892	2.6
CC(NC(=O)Nc1ccc(Cl)cc1)C1CCCO1 (configuration not stated)	-5.9	-3.5	7.0	11.0	-23.0	2068	-1.3
CCCCNC(=O)C1CC(=O)N(CCc2ccccc2)C1 (configuration not stated)	7.9	0.1	3.2	-0.7	-61.0	4067	2.4
CCC(C)Sc1cccc(-c2nc3ccccn3c2NCc2ccccc2)c1 (configuration not stated)	nt	11.2	5.5	2.2	8.5	3845	-0.2
COc1ccc(/C=N/NC(=O)c2ccn[nH]2)cc1Cn1cc([N+](=O)[O-])cn1	5.2	nt	nt	nt	-19.2	3732	nt
CC(=O)c1sc(NC(=O)CN2C(=O)CCC2=O)nc1C	11.1	-0.7	nt	nt	-9.5	2643	1.4
CCCS(=O)(=O)NCCc1cc2ccc(OC)cc2[nH]c1=O	nt	1.6	7.4	6.6	-21.7	5554	3.1
C[n+]1ccc(C(=O)Nc2ccccc2Cl)cc1	-11.1	2.2	4.5	2.0	-11.8	6772	1.0
O=C(Nc1ccnn1C1CCN(CC(O)CO)CC1)C1CCCC1 (configuration not stated)	-6.3	2.3	16.7	1.5	-9.3	6749	2.8
CCCCn1nc(C(=O)Nc2ccc3c(c2)OCCO3)c2ccccc2c1=O	nt	-0.9	-6.0	-0.3	8.4	3836	2.2
CCOC(=O)N1CCN(C(=O)c2ccc3c(c2)N(Cc2cccc(Cl)c2)C(=O)c2ccccc2S3=O)CC1 (configuration not stated)	6.3	-4.9	-3.0	-7.8	-8.2	4042	0.5
COc1cccc(/C=N/NC(=O)c2ccc(CN3c4cccc5cccc(c45)S3(=O)=O)cc2)c1	-11.3	nt	nt	nt	-12.9	7243	nt
Nc1nnc(SCC(=O)NN2C(=O)NC3(CCCCC3)C2=O)s1	-13.6	nt	nt	nt	-22.7	2633	nt
CC1=C(C(=O)Nc2ccc(C(=O)N3CCN(c4cccc(Cl)c4)CC3)cc2)SCCO1	6.2	-6.4	-5.4	0.1	3.9	3727	-0.5
Cc1oc2cc3oc(=O)c(CCC(=O)NCCC(=O)O)c(C)c3cc2c1C	-14.4	-1.6	13.0	12.6	-21.7	3727	4.4
CCOc1ccc(Cc2nc(C)c(CC(=O)N3CCCCC3)c(=O)[nH]2)cc1	-6.1	2.7	-8.0	-0.4	-8.4	3382	7.6
CN(C)C=Nc1ncc(C(=O)c2ccc3ccccc3c2)s1	nt	4.9	9.8	11.5	nt	nt	7.0
Cc1ccc(C)c(NC(=O)Cc2nc(CCl)cs2)c1	1.8	0.1	3.8	-4.0	-13.5	9899	2.2
COc1ccc(OC)c(NC(=O)Nc2ccc3[nH]ccc3c2)c1	-2.7	-5.1	5.5	18.3	nt	3564	-0.8
CCOc1cc(/C=N/Nc2cc(C)nc3ccc(C)cc23)ccc1O	-18.8	nt	nt	nt	-16.6	3779	nt
CN1C(=O)C(O)(C2COC(C)(C)CC2=O)c2ccccc21 (configuration not stated)	14.5	-13.3	nt	nt	-1.5	5020	3.3
Cc1ccc(S(=O)(=O)NNc2nnc(C)c(=O)[nH]2)cc1	0.3	10.4	2.8	-12.1	-20.0	2093	5.9
Cc1cccc(OCC(=O)N2CCN(S(C)(=O)=O)CC2)c1	-8.7	-1.6	-8.2	0.0	-39.6	4098	2.7

# 2 of these compounds, reformatted:
# Results follow in this order: BJeLR viability, ugtP null kill, Mtb hypoxia rep, Mtb hypoxia rep growth, PrP 5UTR inh, Autofluor counter, Sa RN4220 lethal
CC(C)n1c(C(F)(F)F)nc2cc(C(=O)N3CCOCC3)ccc21
→ -12.3, 3.5, 14.9, 5.6, -10.2, 4236, 8.3
O=C(Nc1cc(C(F)(F)F)ccc1Cl)c1ccncc1
→ 10.6, 1.8, 4.1, 7.1, 1.1, 4352, 9.4
